Mtb hypoxia rep – inhibitors of hypoxia-regulated fluorescent reporter in Mycobacterium tuberculosis | M. tuberculosis hypoxia-regulated fluorescent reporter, fluorescence | fluorescence inhibition, % (concentration not given with the values) | actives 0.1% (n = 300,000) | AID 1159583;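 active = 35 to 45% if threefold the growth effect, above 45% if 1.5-fold the growth effect; inactive = the rest, general growth blockers included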;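 also: wells of about 50 µL received 100 nL stock; 0% = vehicle wells and 100% = reference inhibitor wells; whole bacteria with a GFP reporter of the hypoxia response; strong numbers were not always called active; many hits fall short of the cut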
PrP UTR inh – suppresses PrP 5' UTR mRNA reporter expression; actives 0.35% (n = 340,000); AID 488862; inhibition, % (concentration not given with the values); cell-based PrP 5' UTR mRNA reporter, plate reader;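 active = every replicate at 50% or more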;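 also: 0 = median of the neutral control wells; tested in H4 reporter cells; numbers are from one replicate; inactives centre near -14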
Bead autofluor – flagged as autofluorescent in microsphere protease counterscreen. actives 3.1% (n = 360,000). AID 624483. compound autofluorescence counterscreen, microsphere flow cytometry; stronger effect = higher value. fluorescence intensity (no concentration beside the values);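 active = at least 3 SD above the mean of all compounds, about 16000 in these data; inconclusive = too few beads counted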;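 also: 100 nL of 1 mM stock went into each well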
Sa RN4220 lethal – S. aureus RN4220 growth inhibition. actives 0.33% (n = 330,000). OD600, 16 h. AID 1259311. inhibition, % (concentration not given with the values);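 active = z-score of -3 or lower and OD600 up to 0.18 on both plates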;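 also: plate controls were untreated cells for no effect and reference antibiotic for full effect; stock transfer was 100 nL into about 80 µL; one replicate is shown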
Sa ugtP lethal – kills S. aureus RN4220 lacking UgtP; S. aureus RN4220 ugtP deletion, OD600 growth, 16 h; some inactives read as strong as hits; actives 0.54% (n = 330,000); AID 1259309; growth inhibition, % (no concentration beside the values);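 active = z-score under -3 and OD600 up to 0.15 on both plates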;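 also: plate controls were untreated wells for no effect and antibiotic for full effect; wells of about 80 µL received 100 nL stock; the first replicate is given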
BJeLR lethal – BJeLR cell viability loss. BJeLR (HRASV12) viability, CellTiter-Glo ATP luminescence, 48 h; reference of the scale not given here. inhibition, % (no concentration beside the values). actives 0.17% (n = 300,000). AID 1554;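 active = replicate mean above 50%; inconclusive = above 50% but judged a plate artefact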;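 also: 50 nL library stock added to about 25 µL; numbers are from one replicate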
Mtb hypoxia rep growth – also measured in Mtb hypoxia rep; calls as there; growth inhibition, %; measured here: M. tuberculosis growth (absorbance);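 0% = vehicle and 100% = reference antibiotic; read after six days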
* hit, by the source's call; ? = inconclusive; / = no result given.

Sequence of screens – Mtb hypoxia rep	Mtb hypoxia rep growth	PrP UTR inh	Bead autofluor	Sa RN4220 lethal	Sa ugtP lethal	BJeLR lethal
CSc1ccc(Cl)c(C(=O)Nc2cc(S(=O)(=O)N3CCOCC3)ccc2N2CCOCC2)c1
  1	7	-13	2846	-3.5	-8	/
Cc1ccc(-c2nnc(-c3cccs3)o2)cc1
  12	16	-162	3310	-4.9	12	-44
O=C(c1cc([N+](=O)[O-])ccc1Cl)N1CCN(c2ccccn2)CC1
  6	9	-15	2021	4.9	3	2
O=C(CS(=O)(=O)c1cn(Cc2ccc(Cl)cc2)c2ccccc12)N1CCCCC1
  8	2	-19	4712	26	46	-6
Cc1[nH]n(-c2ccccc2)c(=O)c1N=Nc1ccccc1C(=O)N1CCOCC1
  8	5	-11	2181	6.4	3	6
COCC(=O)Nc1ccc(N2CCOCC2)c(S(=O)(=O)Nc2ccccc2OC)c1
  -3	0	6	?	4.8	-3	/
COC(=O)c1ccc(C(=O)OC)nc1
  11	14	-24	4086	6.7	-5	-3
Cc1ccc(NC(=O)CCc2ccc(S(=O)(=O)NC3CCCCC3)cc2)cc1
  /	/	-26	2948	-0.3	-5	0
CC(=O)OC[C@]1(OC(C)=O)C[C@@]23CCC4[C@@](C)(CCC[C@@]4(C)C(=O)O)C2CCC1C3 (stereo partly specified)
  5	10	/	/	26	-19	/
O=C(NN=C1CCCC1)c1n[nH]c2c1CCCC2
  -5	-4	-60	2546	3.6	12	-5
COc1ccc(N(CC(=O)Nc2cccc(N(C)S(C)(=O)=O)c2)S(C)(=O)=O)cc1OC
  7	6	-17	9162	-0.2	7	-2
Cc1ccc(NC(=O)C(c2ccccc2)N2CCN(CC(=O)N3CCOCC3)CC2)cc1Cl (stereo unspecified)
  3	-12	-16	5169	2.4	9	/
CCON=C(C)c1c(O)cc(-c2ccccc2)n(-c2ccccc2)c1=O
  18	11	/	/	19	18	/
Cc1ccc(C=NNC(=O)c2ccccc2OCc2ccc(F)cc2)o1
  10	13	/	/	3.4	0	/
COc1ccc(S(=O)(=O)N2CCC(C(=O)N[C@@H](C)C(=O)NC3CC3)CC2)cc1
  -1	17	1	5338	-1.0	-4	-7
CN=C(Nc1cccc(OC)c1)SC1CC(=O)N(c2ccc(C(=O)O)cc2)C1=O (stereo unspecified)
  11	-3	2	2200	6.8	5	-1
Cn1ncc2c(N)nc(NCCO)nc21
  7	6	-8	2857	4.4	11	/
CCn1cc(CN2CCN(CCc3ccccc3)C(CCO)C2)c(C)n1 (stereo unspecified)
  -5	1	-16	2564	3.8	3	-3
O=C(NCCc1csc(-c2cccnc2)n1)c1cccc(Cl)c1
  10	5	-11	3317	-0.2	-2	-10
COC(OC)C1(CCc2ccccc2)NC(=O)NC1=O (stereo unspecified)
  3	7	-19	3311	0.1	4	/
O=C(c1ccccc1C(=O)N(c1ccccc1)c1ccccc1)N1CCCCC1
  2	-3	-11	2504	2.3	-2	-3
CC(=O)Nc1ccc(N(C(=O)CNC(=O)c2cccs2)C(C(=O)NC(C)(C)C)c2ccccc2)cc1 (stereo unspecified)
  16	4	-44	4985	2.8	0	-2
O=C(CNC(=O)c1ccccc1F)Nc1ccncc1
  7	-1	-32	5394	2.2	5	-13
COc1ccc(N2C(=O)C3CCCN3C2c2cccc(OC)c2OC)cc1 (stereo unspecified)
  /	/	-1	5556	1.0	1	1
O=S(=O)(c1cc(Br)c(Cl)s1)N1CCCC1
  3	8	/	5666	4.9	10	-2
COc1cccc(OCc2cc(C(=O)NCCN3CCCCC3CO)no2)c1 (stereo unspecified)
  5	1	1	?	0.8	6	-3
Cc1ccc(-n2ncc3c(=O)n(Cc4cccnc4)cnc32)cc1
  14	14	-9	19270*	0.4	-1	-5
Cc1ccccc1N=Nc1c(N)n[nH]c1N
  9	-1	55*	/	2.5	-1	-2
FC(F)Oc1ccc(NC(=S)NC23CC4CC(CC(C4)C2)C3)cc1
  /	/	-32	6152	-9.4	-40	-6
Cc1cccc(Cn2c(=O)n(-c3ccc(CC(=O)NCc4ccco4)cc3)c(=O)c3sccc32)c1
  4	4	-19	4300	-4.5	16	14
Cc1cc(NS(=O)(=O)c2ccc(NC(=O)Nc3cccc(C(F)(F)F)c3)cc2)no1
  6	11	-15	5637	-4.4	-7	-9
CN(C)c1nc(N2CCN(c3ccccc3)CC2)c(C#N)c(=O)o1
  16	10	-27	5550	1.5	1	-9
CN(C(=O)COC(=O)c1cc(-c2ccccc2Cl)nc2ccccc12)C1CCS(=O)(=O)C1 (stereo unspecified)
  3	3	-2	1904	1.2	12	-2
CN1C(=O)CS(=O)c2ccc(C(=O)NC3CC3)cc21 (stereo unspecified)
  /	/	-3	6146	-1.2	2	-3
CON=CCC(=O)c1ccc(OC)cc1
  -1	7	/	/	3.6	3	/
Cc1ccc(S(=O)(=O)Nc2ccccc2-c2ccccc2NS(=O)(=O)c2ccc(C)cc2)cc1
  /	/	-11	2253	28	9	4
COc1cccc(-n2c(COc3ccc(C)cc3)nnc2SCC(N)=O)c1
  -5	-14	-28	6731	-5.2	-3	-1
CCC(CC)c1nnc(NC(=O)c2c(-c3ccccc3)noc2C)s1
  /	/	7	5431	3.6	6	-3
COc1ccc(CN(C(=O)c2ccco2)c2ccc(C)c(C)c2)cc1
  5	-5	-14	3456	3.7	3	-4
O=C(Nc1ccc(Br)cc1)c1ccc(N2C(=O)C3CCCCC3C2=O)cc1 (stereo unspecified)
  -10	-11	-7	6555	1.0	-4	-4
COc1ccc2oc(C(=O)NC(C)c3ccccn3)c(C)c2c1 (stereo unspecified)
  -4	8	-16	3409	-0.3	-6	/
O=C(NCC1OCCCN1S(=O)(=O)c1cc(F)ccc1F)C(=O)NC1CCCCCC1 (stereo unspecified)
  7	8	-25	2732	0.8	12	-6
COC(=O)CNC(c1ccccc1)c1cc(Br)ccc1NC(=O)CNC(=O)OCc1ccccc1 (stereo unspecified)
  8	4	-17	1981	-2.1	-8	-6
CCN(c1ccccc1)S(=O)(=O)c1ccc(N2CCN(c3ccc(OC)cc3)CC2)nc1
  1	-3	-1	?	6.7	14	/
Cc1ccc(NC(=O)N/C=C/c2ccco2)c(C)c1
  -4	-8	-8	16016	-0.2	3	2
CCn1c(CNC(=O)c2ccco2)nnc1SCCOc1ccccc1
  2	-6	-24	4207	0.1	5	-8
O=C(CN1CCCC1)N1c2ccccc2Sc2ccc(Cl)cc21
  10	7	-19	3914	1.7	6	3
CCCNC(=O)c1c(N)n(Cc2ccco2)c2nc3ccccc3nc12
  -10	-5	/	/	-1.1	-27	-3
Cn1nccc1NC(=O)CC1(CC(=O)O)CCCCC1
  -7	-1	/	/	4.1	4	0
CC(=O)c1ccc(N2CCN(S(=O)(=O)c3cccc4nsnc34)CC2)cc1
  5	5	-6	3292	3.2	4	0
NC(=O)Cn1c(O)c(N=NC(=O)CNC(=O)/C=C/c2ccccc2)c2ccccc21
  -1	8	-10	4478	1.5	2	-5
O=C(COC(=O)CCC(=O)c1ccc(F)cc1)Nc1ccc(N2CCOCC2)cc1
  5	14	-16	3116	-4.9	-4	6
CC1(C)CC(NCCN2CCN(C3=CC(=C(C#N)C#N)CC(C)(C)C3)CC2)=CC(=C(C#N)C#N)C1
  -1	5	-7	4513	-6.0	-16	5
O=S(=O)(NCC1CCC(NS(=O)(=O)c2c(F)cccc2F)CC1)c1ccc2c(c1)OCCO2 (stereo unspecified)
  13	9	-6	3962	3.2	-27	/
CCCCNC(=S)N(C)N=Cc1ccc(OCC(=O)Nc2c(C)cc(C)cc2C)c(OC)c1
  -8	-2	/	/	16	4	/
CCN(CC)P(=O)(Nc1ccc([N+](=O)[O-])cc1)c1c(C)nn(CCC#N)c1NC(=O)c1ccc(Cl)cc1Cl (stereo unspecified)
  -2	6	-15	4428	-1.8	5	11
COc1ccccc1-c1nnc(SCC(=O)Nc2ccc(S(N)(=O)=O)cc2)n1C
  14	4	-17	21773*	0.9	-1	-1
COc1ccc(C2NC(=O)NC(O)(C(F)(F)F)C2C(=O)c2ccc(C)cc2)cc1 (stereo unspecified)
  10	11	11	4125	5.8	11	-10
NC(=S)N/N=C/c1c(O)c(Br)cc2oc3c(c12)CCCC3
  /	/	9	4439	/	/	-4
CCCN(CC(=O)Nc1ccccc1C)C(=O)c1cnc(C)cn1
  1	0	-6	5172	1.4	6	/

New compounds follow:
Sequence of screens – Mtb hypoxia rep	Mtb hypoxia rep growth	PrP UTR inh	Bead autofluor	Sa RN4220 lethal	Sa ugtP lethal	BJeLR lethal
O=C(Nc1nc(-c2ccccc2)cs1)Nc1ccc(F)cc1F
  1	7	-22	4020	-6.1	-12	12
CCOc1ccc(C(CC(=O)O)NC(=O)COc2ccccc2OC)cc1OC (stereo unspecified)
  -11	-3	-11	4078	0.4	-4	3
CCCCN(C)S(=O)(=O)c1ccc(C(=O)N=c2sc3cc(NC(C)=O)ccc3n2C)cc1
  /	/	-2	7664	/	/	7
CCOc1ccc(NC(=O)C2CCCN(S(=O)(=O)c3ccc4[nH]c(=O)ccc4c3)C2)cc1 (stereo unspecified)
  -2	-3	7	5074	5.7	2	6
Cc1cc(-c2nn(-c3ccccc3)cc2/C=C2\SC(N)=NC2=O)ccc1OC(C)C
  2	-1	-6	2638	-1.7	-10	-6
NC(CC(=O)NC(c1ccccc1)(c1ccccc1)c1ccccc1)C(=O)O (stereo unspecified)
  -8	-10	-11	2189	-2.2	-1	-10
CCOC(=O)Cc1csc(NC(=O)CCS(=O)(=O)Cc2ccccc2)n1
  19	4	2	7928	8.2	-2	-4
CN(C)c1ccc([N+](=O)[O-])c([N+](=O)[O-])c1
  15	12	-9	4374	2.9	-2	/
CNC(=O)c1sc(-c2cccnc2)nc1C
  2	-2	-15	?	2.0	6	-6
CCOC(=O)C1CCCN(c2nc3ccccc3nc2NS(=O)(=O)c2ccc(C)cc2)C1 (stereo unspecified)
  -7	3	-7	3321	3.6	-3	/
O=C(NN=Cc1cccc(OCC(=O)N2CCCC2)c1)C(=O)Nc1ccccc1F
  -6	-4	/	/	5.1	0	/
Cc1[nH]n(-c2ccccc2)c(=O)c1/C=N/N1C(=O)c2cccc3cccc(c23)C1=O
  /	/	-19	3899	/	/	3
COc1ccc(/C=C/c2nc(C#N)c(NCCN(C)C)o2)cc1OC
  8	13	-33	3632	-1.1	14	0
O=C(Nc1ccccc1[N+](=O)[O-])C1C(c2ccccc2)=C1c1ccccc1
  /	/	-14	4357	-6.5	11	-8
O=C(NCCOC(=O)c1ccc(S(=O)(=O)N2CCOCC2)cc1)c1cccnc1
  3	8	-15	3605	-5.4	2	1
CCCN(CC(=O)Nc1ccccc1C)C(=O)c1cc(C)oc1C
  12	4	-16	/	4.6	6	/
CC(=O)NC12CC3CC(C1)CC(C(=O)OCC(=O)c1ccc4c(c1)OCCO4)(C3)C2
  /	/	-22	4788	3.4	-9	11
Cc1occc1C(=O)Nc1cccc(/C=C/C(=O)O)c1
  /	/	-15	4246	4.8	3	5
CCCCN(C(=O)CNC(=O)c1cccs1)C(C(=O)NC1CCCCC1)c1cccnc1 (stereo unspecified)
  -1	-3	-11	4586	-0.5	6	0
CC(=O)NN=Cc1cc(C(C)(C)C)cc(C=NNC(C)=O)c1O
  2	12	/	/	7.3	1	/
O=C(C(c1ccccc1)c1ccccc1)N1CCN(Cc2ccccn2)CC1
  /	/	-18	4977	3.5	-8	-1
Cc1ccc(CNC(=O)C(CCC(N)=O)NC(=O)OCc2ccccc2)cc1 (stereo unspecified)
  /	/	-11	2414	/	/	4
O=C1[C@@H](Oc2ccccc2)[C@@H](c2ccccc2)N1c1cccnc1
  -1	-1	-11	3759	7.8	2	/
COc1ccccc1N1CCN(c2cc(=O)n(Cc3ccc(F)cc3)c(=O)[nH]2)CC1
  1	4	-38	6221	-9.5	-3	-6
CCc1ccccc1NC(=O)CN1CCN(C(=O)CN2C(=O)NC3(CCCC3)C2=O)CC1
  6	2	-23	6674	1.1	6	/

Screening results from PubChem.
